Screening data from PubChem.
Sfp PPTase inh: Sfp phosphopantetheinyl transferase inhibition; hit rate 3.5% among 310,000; AID 1490; Q9F4F7; Biochemical Sfp PPTase activity, qHTS; Potency, µM, for inactives: max response, negative = inhibition, usual class: inhibitors; active = well fitted inhibition curve with a large enough effect; inconclusive = small, poorly fitted or top-dose-only effect, or another doubt; inactive = no such curve, though single readings can be large or run the other way;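 note: the enzyme is Sfp with the accession as filed and its product quenches rhodamine fluorescence; potency is the fitted concentration of half-maximal effect; 0% = enzyme reaction without inhibitor and -100% = no enzyme wells; top concentration of the series not given in the record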
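Reaction rates are the 30-min fluorescence difference (ex 525, em 598 nm) in wells containing 15 nM Sfp, 5 uM rhodamine-CoA and 12.5 uM BHQ-2-YbbR at pH 7.6 with 10 mM MgCl2.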
Menin MLL FP FL: menin-MLL binding inhibition, fluorescein peptide | 290,000 tested, under 10 active | AID 1766 | Fluorescence polarization, fluorescein-MLL peptide displacement from menin | FP activity change, % at 61.4 µM; inconclusive = falling polarisation curve, or a change in total fluorescence; inactive = total fluorescence flat and polarisation flat or rising; no compound was filed as active; the % refers to the polarisation; negative = inhibition;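 note: % of control where 0% means no effect; inhibitors lower the polarisation; unlabelled MLL peptide was the positive control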
TRPV1 PAM: human TRPV1 potentiation; hit rate 0.02% among 320,000; potentiation, % at 8.33 µM; TRPV1-expressing cells, Fluo-8 calcium influx, capsaicin EC20 potentiation; host cell line not named in the record; control for the full effect not named in the record; Q8NER1; active means potentiation above 80%; inconclusive means 30% to 80%; inactive means below 30%; note: 0% is about no effect
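TRPV1-expressing cells were cultured overnight at 35.5C and loaded with Fluo-8 calcium dye for 40 to 90 min at room temperature. After a 10 s baseline, compound was added and calcium influx was read kinetically for 3 min (ex 480/em 520 nm).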
ClpP mod: qHTS Assay for Activators of ClpP | ATP-dependent Clp protease proteolytic subunit (Bacillus subtilis (strain 168)), P80244 | purified B. subtilis ClpP, FRET peptide cleavage, 20 min | Potency, µM (doses to about 57.5 µM), inactives show top-dose activity change, negative = active | hit rate 1.9% among 340,000; active = well fitted falling curve with a large enough effect; inconclusive = small, poorly fitted or top-dose-only effect; inactive = no such curve, though single readings can be large or run the other way; note: potency is the fitted concentration of half-maximal effect; the source files actives as falling curves though it sought activators and does not explain the sign; nearly all actives have a fitted effect of over 65% in size; many hits overshoot -100%
Target sequence (P80244 whole entry, looked up): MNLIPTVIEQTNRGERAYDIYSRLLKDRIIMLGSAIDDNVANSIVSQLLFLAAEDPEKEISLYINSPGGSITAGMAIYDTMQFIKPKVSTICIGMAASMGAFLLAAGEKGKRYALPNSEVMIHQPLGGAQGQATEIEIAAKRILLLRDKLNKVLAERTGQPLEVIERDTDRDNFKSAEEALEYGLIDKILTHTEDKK
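ClpP 10 microg/mL final, pH 8 Tris/KCl buffer with BSA, glycerol, Tween-20; compound pinned in; FRET-FV substrate; RT 20 min; Ex320/Em430; ΔFRET vs ADEP 5.8 microM, DMSO, no enzyme.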
gsp antag: antagonists of gsp mutant (McCune-Albright syndrome); hit rate 0.4% among 340,000; gsp-mutant cells, cAMP HTRF, 30 min; control for the full effect not named in the record; AID 624288; Potency, µM (highest dose often 76.9 µM), without a hit: at the top dose activity change, negative = inhibition, usual class: inhibitors; active = falling curve of any shape with a large fitted effect; inconclusive = falling curve, mostly with a smaller effect; inactive = flat or rising curve; cell line not stated here;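 note: intracellular cAMP measured with PDE inhibitor Ro 20-1724 present during compound exposure; potency is the fitted concentration of half-maximal effect; % is set by controls: 0 for no effect and ±100 for the full control effect; nearly all actives have a fitted effect of over 65% in size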
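G418-selected cells were plated in DMEM/10% FBS for 16-24 h at 37C, then treated with compounds plus the PDE inhibitor […] (300 uM solution added) for 30 min at 37C. Intracellular cAMP was measured by HTRF after 30 min lysis at room temperature.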
D2 PAM: human D2 receptor positive allosteric modulation; P14416; DiscoveRx D2 beta-arrestin cells, luminescence, 90 min; 100% = 57 uM dopamine signal; potentiation, % (concentration not given with the values); hit rate 0.23% among 360,000; active = potentiation of 50% or more; inconclusive = 30% to 50%; inactive = 30% or less;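 note: compound concentration not given in the record; tested on top of an EC20 dose of dopamine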
Target sequence (P14416 whole entry, looked up): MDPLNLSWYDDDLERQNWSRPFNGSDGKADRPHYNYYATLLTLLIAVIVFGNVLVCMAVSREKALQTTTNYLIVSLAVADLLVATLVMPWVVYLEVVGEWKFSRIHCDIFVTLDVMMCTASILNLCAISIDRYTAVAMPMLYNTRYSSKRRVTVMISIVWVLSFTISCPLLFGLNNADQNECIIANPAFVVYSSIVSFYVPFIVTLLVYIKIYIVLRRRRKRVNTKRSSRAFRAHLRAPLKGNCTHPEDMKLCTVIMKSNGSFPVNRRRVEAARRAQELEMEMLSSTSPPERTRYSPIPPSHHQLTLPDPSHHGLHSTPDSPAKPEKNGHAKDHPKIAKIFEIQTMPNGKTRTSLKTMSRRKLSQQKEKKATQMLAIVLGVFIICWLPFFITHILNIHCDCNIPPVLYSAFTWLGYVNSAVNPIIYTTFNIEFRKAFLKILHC
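PathHunter beta-arrestin assay in DiscoveRx D2 cells. Compounds were added with an EC20 of dopamine (50 nM final) for 90 min at 37 deg C. Luminescence was read 1 h after detection reagent, with 57 uM dopamine as the EC100 control.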
gsp agonist: gsp mutant agonism; Potency, µM (top dose mostly 76.9 µM), inactives show at the top dose activation (cAMP increase), actives largely listed as activators; gsp mutant cells, cAMP HTRF, 30 min; control for the full effect not named in the record; hit rate 0.13% among 340,000; active = well fitted activation curve with a large enough effect; inconclusive = small, poorly fitted or top-dose-only effect, or another doubt; inactive = no such curve, though single readings can be large or run the other way; cell line not stated here;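 note: phosphodiesterase inhibitor Ro 20-1724 added with compounds to block cAMP breakdown; potency is the fitted concentration of half-maximal effect; nearly all actives have a fitted effect of over 60% in size; about a fifth of the inactives were tested at one dose only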
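Cells stably selected in G418 were plated at 2000/well, grown 16-24 hr, then given compounds in DMSO with the PDE inhibitor […] (300 uM solution added) for 30 min at 37C; cAMP was read by HTRF.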
Active calls of the source: *; ? = inconclusive; nt = no result given; [ ] = another dose, or the depositor's remark. This is a subset (hit frequency here may not be typical).

SMILES | Sfp PPTase inh | Menin MLL FP FL | TRPV1 PAM | ClpP mod | gsp antag | D2 PAM | gsp agonist
O=c1c2ccccc2nc(CSc2ncnc3nc[nH]c23)n1-c1ccccc1Cl | -18% | 0.1 | 15 | 1.5% | 2% | -7 | 8%
CCCNC(=O)N1[C@H]2CC[C@@H]1C(C(=O)OC)=C(c1ccc(-c3ccccc3)c(F)c1)C2 | nt | nt | -14 | -0.6% | ? | -17 | nt
NCCCN1CCN(c2ccccc2)CC1 | -7% | 0.3 | nt | nt | 6% | 15 | -10%[15.4 µM]
O=C(Cc1ccccc1)N1CCN(Cc2ccc(Cl)cc2)CC1 | nt | nt | nt | nt | 5% | -5 | -2%
COc1ccccc1N1CCN(C(CNC(=O)Oc2ccccc2)c2cccnc2)CC1 (centres undefined) | 3% | 4.2 | 8 | 0.1% | 6% | -15 | -2%
CCOc1ccc(N)cc1 | nt | nt | nt | 0.2% | 4% | -1 | ?
C=C1C(=O)[C@@]23C[C@H]4[C@@H]5[C@@]6(C)CCC[C@@]57[C@@H]2[C@@H](O)[C@@H]1C[C@H]3[C@H]7N4C6 | nt | nt | nt | -2.5% | -7% | -33 | nt
CCOc1ccc(C(=O)OC2CC3CCC(C2)N3C)cc1 (centres undefined) | -5% | 2.2 | -3 | 0.1% | -9% | -11 | 8%
Cc1ccc(C)c(NC(=O)CCNC(=O)N2C[C@H]3C[C@@H](C2)c2cccc(=O)n2C3)c1 | 16% | -0.5 | -1 | -3.9% | 13% | -9 | nt
CCCCc1cc(=O)oc2cc(OCC(=O)N3C[C@H]4C[C@@H](C3)c3cccc(=O)n3C4)c(Cl)cc12 | 7% | 0.7 | 5 | 4.7% | -2% | -33 | nt
O=P(O)(O)Oc1ccccc1P(=O)(c1ccccc1)c1ccccc1 | 12% | -5.2 | 0 | 0.6% | 6% | -3 | -15%
COC(=O)c1ccc(NC(=O)CSc2nc3ccc(N4C(=O)C5C6C=CC(C6)C5C4=O)cc3s2)cc1 (centres undefined) | -2% | 12 | 9 | -3.8% | ? | nt | -5%
COc1cccc(N=Cc2c(O)n(Cc3ccco3)c(=O)[nH]c2=O)c1 | 6% | 1.6 | -2 | -19% | 12% | -3 | 14%
CC[N+](CC)(CC#CCO)CC#Cc1ccccc1 | 15% | -1.2 | -7 | nt | 5% | -3 | -1%
CC1c2ccccc2-n2nncc2CN1CC1CCCCC1 (centres undefined) | nt | nt | nt | 1.4% | -7% | -6 | nt
N[C@@H](Cc1cc(Br)c(O)c(Br)c1)C(=O)O | 50µM* | 7.9 | -5 | nt | nt | nt | nt
O=C(C1CCCN1S(=O)(=O)c1cccc2nsnc12)N1CCN(c2ccccc2)CC1 (centres undefined) | 16% | nt | 16 | 0.2% | 3% | -11 | ?
C#CC[N+]1(C)[C@@H]2CC[C@H]1CC(OC(=O)C(CO)c1ccccc1)C2 (some centres undefined) | 1% | -2.4 | 2 | 0.0% | 3% | -20 | -32%[inhibitor]
Cc1cc(OC(C)C(=O)NCC(O)c2ccccc2)c2c3c(c(=O)oc2c1)CCC3 (centres undefined) | 7% | -1.4 | -3 | 3.7% | 4% | -8 | -24%
CN(C)c1ccc(NC(=O)CN2C(=O)CN=C(c3ccccc3)c3cc(Cl)ccc32)cc1 | 79µM* | 5.4 | -3 | -3.2% | ? | -3 | -1%
O=C(COc1ccccc1)Nc1ccc(Cl)cc1C(=O)c1ccccc1 | -3% | 12 | 7 | ? | -4% | -4 | 19%
CN1C2CCC1C(C(=O)O)C(OC(=O)c1ccccc1)C2 (centres undefined) | 26% | 1.9 | nt | 1.5% | 7% | -14 | nt
O=C1/C(=C/c2cccc([N+](=O)[O-])c2)N2CCC1CC2 | 3% | 3.4 | -2 | 0.3% | 10% | 0 | -18%
COC(=O)C1=C(c2ccccc2)C[C@@H]2CC[C@H]1N2C(=O)N1CCCC1 | nt | nt | nt | 2.1% | 10% | -2 | nt
CC(C)c1oc(=O)cc2c1[C@@H](O)[C@H]1OC(=O)[C@@]3(C)CC[C@@H](O)[C@@]2(C)C13 (some centres undefined) | 3% | -1.8 | -1 | 0.7% | 13% | -8 | 6%

Among those listed so far, these contain sulfur.
SMILES | Sfp PPTase inh | Menin MLL FP FL | TRPV1 PAM | ClpP mod | gsp antag | D2 PAM | gsp agonist
O=c1c2ccccc2nc(CSc2ncnc3nc[nH]c23)n1-c1ccccc1Cl | -18% | 0.1 | 15 | 1.5% | 2% | -7 | 8%
COC(=O)c1ccc(NC(=O)CSc2nc3ccc(N4C(=O)C5C6C=CC(C6)C5C4=O)cc3s2)cc1 (centres undefined) | -2% | 12 | 9 | -3.8% | ? | nt | -5%
O=C(C1CCCN1S(=O)(=O)c1cccc2nsnc12)N1CCN(c2ccccc2)CC1 (centres undefined) | 16% | nt | 16 | 0.2% | 3% | -11 | ?

(more compounds)
SMILES | Sfp PPTase inh | Menin MLL FP FL | TRPV1 PAM | ClpP mod | gsp antag | D2 PAM | gsp agonist
CC(=O)N(C1=NCCCS1)c1ccc(F)cc1 | 10% | 5.5 | 7 | 1.2% | 11% | -9 | 15%
CNCCc1c[nH]c2ccccc12 | 21% | 1.2 | 9 | -3.8% | -3% | -20 | nt
O=C(Nc1ccc2c(c1)OCO2)c1cn(Cc2ccc(F)cc2)nn1 | 3% | 1.6 | -12 | -1.8% | -8% | -33 | 11%
NS(=O)(=O)c1ccc(N=Cc2c(O)n(-c3ccccc3)c(=O)[nH]c2=O)cc1 | -4% | 17 | 1 | nt | 6% | -10 | 20%[15.4 µM]
COc1ccc2ccc(O)c(CN3CC=C(c4ccccc4)CC3)c2c1 | 1% | 3.6 | 18 | -23% | -1% | -4 | -3%
CCOC(=O)c1c(N)n(CCN2CCOCC2)c2nc3ccccc3nc12 | 0% | 3.0 | 0 | 25µM* | -8% | -4 | ?
CCC1(c2cccc(O)c2)CCCCN(C)C1 (centres undefined) | nt | nt | -29 | -2.2% | -7% | -3 | nt
CCCn1cc(C(=O)O)cn1 | 4% | -2.5 | -8 | nt | 1% | 2 | 19%
CCn1c(C)c(C(=O)NCCc2ccccc2)c2cc(OC)ccc21 | -3% | 2.3 | -12 | 0.6% | -7% | -6 | -1%[15.4 µM]
Cc1ccc(-n2c(=S)[nH]c3ccccc3c2=O)cc1C | nt | nt | nt | -2.1% | nt | -11 | -15%
CC(=O)O[C@H]1CCC2C3CCC4=CC(=O)CCC4=C3C=C[C@@]21C (some centres undefined) | ? | -9.6 | -16 | -2.1% | 9% | 0 | -6%[15.4 µM]
Cc1ccc(N)c(C)c1 | nt | nt | 0 | 1.0% | 7% | 3 | nt
Nc1c(C(=O)NCCN2CCOCC2)c2nc3ccccc3nc2n1Cc1ccco1 | -8% | ? | -3 | 16µM* | 15% | 19 | -5%
C[C@@H]1O[C@@H](O[C@@H]2C=C3CCC4C(CC[C@]5(C)[C@@H](c6ccc(=O)oc6)CC[C@]45O)[C@@]3(C)CC2)[C@H](O)[C@H](O)[C@H]1O (some centres undefined) | nt | nt | -5 | 0.3% | -1% | 5 | nt
CC(=O)Nc1ccc(C(=O)OCC(=O)Nc2ccc(Cl)cc2C(=O)c2ccccc2)cc1 | -10% | 2.4 | -6 | -3.8% | ? | -3 | 5%
CCCC(=O)c1cc(CP(=O)(OCC)OCC)oc1C | ? | -2.1 | -12 | -3.9% | 5% | -10 | 6%
CCS(=O)(=O)C1=NN2C(=N)/C(=C\c3ccc(OC(=O)c4ccco4)cc3)C(=O)N=C2S1 | ? | nt | -11 | 2.3% | -5% | -1 | -5%
COc1ccc2c3c1OC1[C@H](O)CCC4[C@@H](C2)N(C)CC[C@]314 (some centres undefined) | nt | nt | nt | -0.7% | 7% | 5 | nt
CC(C)(C)NC(=O)CN1CCCN(C(=O)COc2ccc(Cl)c3ccccc23)CC1 | nt | nt | 4 | -20% | ? | 14 | -2%
C=CCN(CC=C)C(=O)CCN1CC1C (centres undefined) | nt | nt | nt | nt | 6% | -3 | -52%
Cc1ccc(C2SCC(=O)Nc3c2c(=O)[nH]n3C2CCOC(C)(C)C2)cc1 (centres undefined) | 19% | 3.2 | 0 | 0.4% | 1% | -21 | -14%
CC(C)(C)NC(=S)N1Cc2ccccc2-n2nncc2C1 | nt | nt | nt | -1.2% | nt | -3 | -121%[inhibitor]
CCCCCCCCCCCCn1ccc(=N)cc1 | ? | -0.6 | -50 | nt | -1% | -24 | 11%[15.4 µM]
Cc1ccc(N/N=C/C=C/c2ccco2)cc1 | nt | nt | nt | 13µM* | 0% | 22 | 10%[15.4 µM]
CCC(=NCc1cccnc1)c1c(O)n(C2CCCCC2)c(=O)[nH]c1=O | 7% | 0.2 | -2 | -0.7% | -17% | 3 | -31%[inhibitor]
COc1ccc(/C=C2/Sc3ccc(C(=O)N4CCc5ccccc5C4)cc3NC2=O)cc1 | 1% | 11 | -5 | -2.5% | -5% | -2 | 14%
CCCc1nc2ccccc2c(=O)n1-c1ccc(O)cc1 | 27% | -0.8 | 6 | nt | 2% | 10 | ?
CCn1c(O)c(C=Nc2ccc(N3CCOCC3)c(Br)c2)c(=O)n(CC)c1=S | -12% | ? | 8 | 1.2% | 5% | 9 | -38%[inhibitor]
COC(=O)C1=C(c2ccc(OCc3ccccc3)cc2)C[C@@H]2CC[C@H]1N2C(=O)NCCCCc1ccccc1 | nt | nt | nt | -8.7% | nt | -7 | ?
Cc1ccc(N2C(=O)NC(=O)C3(Cc4ccccc4N4CCCC43)C2=O)cc1 (centres undefined) | ? | 2.6 | 1 | -16% | -6% | 17 | ?

An excerpt from above in order of number of heavy atoms, smallest number first:
SMILES | Sfp PPTase inh | Menin MLL FP FL | TRPV1 PAM | ClpP mod | gsp antag | D2 PAM | gsp agonist
CCCn1cc(C(=O)O)cn1 | 4% | -2.5 | -8 | nt | 1% | 2 | 19%
CCCc1nc2ccccc2c(=O)n1-c1ccc(O)cc1 | 27% | -0.8 | 6 | nt | 2% | 10 | ?
CC(=O)Nc1ccc(C(=O)OCC(=O)Nc2ccc(Cl)cc2C(=O)c2ccccc2)cc1 | -10% | 2.4 | -6 | -3.8% | ? | -3 | 5%
